From PubChem
Six1-Eya2 inh: blocks human Six1 binding to Eya2; AlphaScreen GST-Six1/His-Eya2 binding, biochemical; stronger effect = lower value; control for the full effect not named in the record; 360,000 tested, 0.56% active; Q15475+O00167; activity change, % (concentration not given with the values); AID 651725; in the data active = activity change below about -65%; inconclusive = about -30% to -65%; inactive = above about -30%; note: % is set by controls: 0 for no effect and ±100 for the full control effect
Target sequence (O00167 whole entry, looked up): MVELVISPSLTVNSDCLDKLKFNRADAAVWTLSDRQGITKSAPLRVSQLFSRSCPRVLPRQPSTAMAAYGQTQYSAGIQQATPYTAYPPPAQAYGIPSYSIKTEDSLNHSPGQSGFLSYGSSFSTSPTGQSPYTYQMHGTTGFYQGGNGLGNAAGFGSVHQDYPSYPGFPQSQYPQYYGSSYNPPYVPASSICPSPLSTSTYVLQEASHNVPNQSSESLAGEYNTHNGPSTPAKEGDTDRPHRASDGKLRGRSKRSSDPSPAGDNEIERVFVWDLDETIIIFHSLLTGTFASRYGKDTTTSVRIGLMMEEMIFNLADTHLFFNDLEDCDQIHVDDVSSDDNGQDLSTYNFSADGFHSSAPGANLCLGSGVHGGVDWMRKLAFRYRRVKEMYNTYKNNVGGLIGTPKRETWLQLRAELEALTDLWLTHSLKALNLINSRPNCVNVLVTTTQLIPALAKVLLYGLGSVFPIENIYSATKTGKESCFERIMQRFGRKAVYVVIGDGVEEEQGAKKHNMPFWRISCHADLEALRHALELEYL
Target sequence (Q15475 whole entry, looked up): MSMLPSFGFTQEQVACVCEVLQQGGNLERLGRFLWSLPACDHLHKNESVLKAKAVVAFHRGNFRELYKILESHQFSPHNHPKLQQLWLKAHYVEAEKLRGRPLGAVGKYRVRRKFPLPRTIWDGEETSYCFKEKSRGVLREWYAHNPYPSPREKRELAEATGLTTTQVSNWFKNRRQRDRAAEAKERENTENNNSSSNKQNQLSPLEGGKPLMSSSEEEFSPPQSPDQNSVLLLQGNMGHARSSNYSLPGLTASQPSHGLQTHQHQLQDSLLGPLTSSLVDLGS
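Homogeneous AlphaScreen proximity assay pairing GST-Six1 with His-tagged Eya2 (added as 5X mix: 250 nM and 500 nM) in 50 mM Tris pH 8.0, 300 mM NaCl, 1 mM TCEP. Glutathione donor and nickel acceptor beads; 1 h, 37 °C, dark.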
D2 potentiator: potentiates the human D2 dopamine receptor allosterically | P14416 | DiscoveRx D2 beta-arrestin cells, luminescence, 90 min; 100% = 57 uM dopamine signal | potentiation, % (no concentration beside the values) | 360,000 tested, 0.23% active | AID 624464; active = potentiation of 50% or more; inconclusive = 30% to 50%; inactive = 30% or less;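 note: compound concentration not given in the record; tested on top of an EC20 dose of dopamine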
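D2 cells co-treated with compound plus 50 nM dopamine (EC20) for 90 min at 37 deg C to detect potentiation. Beta-arrestin recruitment was read as enzyme-fragment luminescence after 1 h at ambient temperature. Full response was set by 57 uM dopamine.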
TRPV1 PAM: potentiators of human vanilloid receptor 1 (TRPV1); 320,000 tested, 0.02% active; potentiation, % at 8.33 µM; TRPV1-expressing cells, Fluo-8 calcium influx, capsaicin EC20 potentiation; host cell line not named in the record; control for the full effect not named in the record; AID 540277; active means potentiation above 80%; inconclusive means 30% to 80%; inactive means below 30%; note: 0% is about no effect
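TRPV1-expressing cells were cultured overnight at 35.5C and loaded with Fluo-8 calcium dye for 40 to 90 min at room temperature. After a 10 s baseline, compound was added and calcium influx was read kinetically for 3 min (ex 480/em 520 nm).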
TRPML1 inh: human mucolipin-1 channel inhibition; 390,000 tested, 0.02% active; AID 624415; activity change, negative = inhibition, % (test concentration not listed); TRPML1-inducible cells, Ca2+ dye fluorescence, FDSS; stronger effect = lower value; inhibition of EC80 agonist-evoked calcium signal; Q9GZU1; in the data active means activity change below about -50%; inconclusive means about -30% to -50%; inactive means above about -30%;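 note: stimulus is agonist 54-4 at its EC80 concentration; % is set by controls: 0 for no effect and ±100 for the full control effect; compound concentration not given in the record; the text of the record puts the active cut at -80%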
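Calcium fluorescence in TRPML1-DL cells induced overnight with Tet: a 110 s read after compound pin addition, then a 110 s antagonist read after challenge with 54-4 at 4 uM final (EC80).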
CtBP-E1A blk: CtBP/E1A binding inhibition; AID 651724; 340,000 tested, 0.49% active; activity change, % (no concentration beside the values); AlphaScreen GST-E1A/His-CtBP binding, 1536-well; stronger effect = lower value; control for the full effect not named in the record; in the data active means activity change below about -65%; inconclusive means about -30% to -65%; inactive means above about -30%; note: % is set by controls: 0 for no effect and ±100 for the full control effect; compound concentration not given in the record
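Steps: dispense buffer (Tris pH 8.0, NaCl 300 mM, TCEP 1 mM, BSA, Tween 20); add 5X protein mix (GST-E1A, His-CtBP, 125 nM each); pin 23 nL compound; 2 h at 37 °C, dark; add 5X beads (50 ug/mL); 1 h; read.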
TRPML1 agonist: agonists of human TRPML1 channel; Q9GZU1; TRPML1-expressing cells, Ca2+ dye fluorescence, FDSS; host cell line not named in the record; reference of the full effect not given here; activation, % (test concentration not listed); 410,000 tested, 0.12% active; in the data active = activation above about 50%; inconclusive = about 30% to 50%; inactive = below about 30%; note: 0% is about no effect; the text of the record puts the active cut at 80%
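Cells: TRPML1-DL, 1X Tet inducer, ~16 h at 37 degrees C/5% CO2. Dye: ABD Ca8 no-wash + quencher, 45-90 min RT. Read: 10 s baseline, compound add, 110 s agonist phase; 54-4 EC80 (4uM final), 110 s antagonist phase.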
* hit, by the source's call; ? = inconclusive; . = no result given; & = joins results of further samples.

Fields – Six1-Eya2 inh, D2 potentiator, TRPV1 PAM, TRPML1 inh, CtBP-E1A blk, TRPML1 agonist
CCCCCCCC(=O)OCC(O)CO (stereo unspecified)
→ -2, -7, -11, 13, 7, -0.4
CCOc1ccc(C(=O)NCC(=O)NCC(c2ccccc2OC)N2CCCC2)cc1 (stereo unspecified)
→ 2, -5, -7, 6, -25, 0.2
O=C1CCc2cc(S(=O)(=O)N3CCN(c4ccccc4F)CC3)ccc2N1
→ -1, 13, 0, 7, 5, 0.1
O=C(NNC(=O)c1ccccc1-n1cccc1)c1ccc(F)cc1
→ -2, -2, -18, 3, 12, 0.6
NCc1ccc(S(N)(=O)=O)cc1
→ -2&1, -2&9, 12, 7&-7, 11&6, -0.5&-0.2
COc1ccc(OC)c(N=Nc2c(O)c3ccccc3[nH]c2=O)c1
→ ?, 0, ., 2, -26, -0.3
CCCCN(CCCNC(=O)c1ccc(CS(=O)(=O)c2c(Cl)cccc2Cl)o1)Cc1ccccc1
→ -8, -27, 12, 30, -7, -0.5
CC(=O)c1c(C)[nH]c(C(=O)OCC(=O)Nc2cc(C(F)(F)F)ccc2N2CCOCC2)c1C
→ 5, 1, -1, -1, -2, -0.7
COc1ccc(NC(=O)NCCC2=CCCCC2)cc1
→ 1, -4, -12, 4, 4, 0.7
O=C(c1cn(-c2ccccc2)nc1-c1cccnc1)N1CCCCC1
→ 0, -20, -5, -8, -6, 3.9
CNC(=O)c1sc(-c2cccs2)nc1C
→ -2, -2, -3, 4, -1, 0.6
O=C(Oc1ccc(-c2ccccc2)cc1)c1ccco1
→ 0, -3, ., 1, 14, 2.6
O=C(NCC(=O)N(c1ccccc1F)C(C(=O)NC1CCCC1)c1cccnc1)c1ccco1 (stereo unspecified)
→ 6, -2, 11, -10, -2, 0.0
Cc1cc(C)nc(NC(=O)CSc2nc3ccccc3o2)n1
→ -1, -12, -1, -2, 2, -0.5
CCN(CC)C(=O)CSc1nnc(-c2ccccn2)n1Cc1ccccc1
→ 7, 1, -18, -6, 3, 1.0
Cc1ccc2c(c1)C1(C)C(C(C)(C)N2C=O)C1(Cl)Cl (stereo unspecified)
→ 1, -12, -2, 10, ., -0.9
CCOC(=O)[C@H]1[C@H]2COc3cc(OC)ccc3[C@@H]2N2C(=O)c3c(C)cc(C)cc3NC(=O)[C@@]12C
→ -3, -2, ., 3, -17, -0.5
O=C(O)C1Cc2ccccc2CN1S(=O)(=O)c1ccccc1 (stereo unspecified)
→ -5, 0, 5, 10, 3, -0.1
O=C(COc1ccc(Cl)cc1)NCc1nnc(SCC(=O)c2ccccc2)o1
→ -2, 3, 0, 1, 3, -0.6
O=C(CCNc1n[nH]c(=O)[nH]c1=O)N1CCCCC1
→ 5, -2, 9, 4, 5, 0.2
CCCCN(C(=O)Cc1coc2cc(C)c(C)cc12)c1c(N)n(Cc2ccccc2)c(=O)[nH]c1=O
→ -2, -24, 3, 8, -1, 0.6
O=C(CC(=O)c1ccccc1)c1ccccc1
→ 31, -10, ., 22, 22, 2.9
COc1ccc(C(=O)Nc2oc(-c3ccccc3)c(-c3ccccc3)c2C#N)cc1
→ -10, -20, -8, 2, -10, -0.2
O=C(NC1CCN(C(=O)Nc2cccc(Cl)c2)CC1)c1ccco1
→ 10, -9, 5, 9, 5, 0.7
CC(C)CNC(=O)COC(=O)c1cc(Cl)cc(Cl)c1N
→ 7, -19, -8, 20, 13, 0.1
CCOc1ccc(N(CC(=O)NC2CCCC(C)C2C)S(=O)(=O)c2c(C)noc2C)cc1 (stereo unspecified)
→ 4, -7, -6, -2, -1, 0.2
COc1ccc(-c2cc(C(=O)NCc3cccs3)no2)cc1
→ 6, 8, -9, ., -1, .
COc1cc(/C=N/NC(=O)CCN2CCN(C(c3ccccc3)c3ccccc3)CC2)ccc1O
→ -21, -8, -10, 4, -5, -0.4
CC(C)(C)NC(=O)NC(=O)CN1c2cccc3cccc(c23)S1(=O)=O
→ 5, 17, -43, -5, 28, 1.4
N#Cc1c(Nc2ccccc2)sc(C(=O)c2ccc(F)cc2)c1N
→ -7, -6, -1, -10, ., 2.3
COc1ccc([C@H]2C[C@H](n3cc(C4CC4)nn3)[C@@H](O)CN2CC2CCCCC2)cc1
→ -5, -2, ., -10, -3, 0.1
CCOC(=O)/C(C)=N/NC(=O)c1ccc([N+](=O)[O-])cc1
→ 2, -7, -5, -12, -3, 0.0
O=C(NC1CCCCC1)C(c1ccccn1)N(C(=O)Cc1cccs1)c1ccc(Cl)cc1 (stereo unspecified)
→ -15, 3, -9, 32, -8, 0.5
COc1ccc(C)cc1S(=O)(=O)N1c2ccc(C)cc2C2CN(C)CCC21 (stereo unspecified)
→ 2, -25, -11, 9, -8, 0.8
O=C(O)/C=C/C(=O)Nc1ccc(Oc2ncnc3cc(Cl)ccc23)nc1
→ 1, -3, -4, -9, -2, 1.2
COc1ccc(/C=C/C(=O)N2CC(C)OC(C)C2)cc1OC (stereo unspecified)
→ 11, -24, 6, 19, ., 0.2
COc1cccc(NC(=O)CSc2nc3ccccc3n2C)c1
→ -4, -8, -17, -10&-1, ., 0.4&0.1
COC(=O)c1ccc(Cn2nc(C)c([N+](=O)[O-])c2C)o1
→ -5, -10, -18, -7, 7, -0.4
CCOC(=O)[C@H]1[C@H]2COc3cc(OC)ccc3[C@@H]2N2C(=O)CN(Cc3ccco3)C(=O)[C@@]12C
→ -6, -2, 2, -12, -23, -0.1
CC(c1ccco1)N(Cc1ccco1)C(=O)Nc1ccccc1 (stereo unspecified)
→ -2, -12, 0, 2, 0, -0.3
CC(C)(C)OC(=O)NCCCC[C@H](NC(=O)c1[nH]cnc1C(=O)Nc1ccccc1)C(=O)OC(C)(C)C
→ -7, -32, -9, -2, 4, -1.1
O=C(Nc1ccncc1)C1CC1c1ccccc1 (stereo unspecified)
→ -2, -22, -10, -6, -6, 0.1
COc1ccc(Cl)cc1NC(=O)COC(=O)CNC(=O)C1CCCCC1
→ -13, -1, 23, 2, -25, 0.4
O=[N+]([O-])c1nn(-c2ccc(Cl)cc2)n(O)c1=NCc1cccnc1
→ -18, -12, 6, 6, -9, 1.5
CCOC(=O)c1cc([N+](=O)[O-])c([N+](=O)[O-])cc1NC(C)=O
→ -27, 4, 4, -9, -28, 0.1
O=C(NCc1ccccc1CN1CCCC1)c1ccc(OCc2cscn2)cc1
→ 3, -3, 1, 9, 1, 0.0
COc1ccc(N2C(=O)CC(c3cc(OC)c(OC)c(OC)c3)CC2=O)cc1
→ 7, -2, 14, 2, 10, -0.6
O=C(Nc1cccc(F)c1)C1CCN(C(=O)c2ccccc2Cl)CC1
→ 5, -9, -2, 12, 15, 0.9
Cc1ccc(/C(=N/Nc2nc3ccccc3s2)C2=C(O)c3ccccc3C2=O)cc1
→ -2, -5, -2, 5, 5, -0.8
C=C1N(c2cccc(Cl)c2)C(=O)OC1(C)C
→ 2, -4, -11, -12, -1, -0.7
CCOC(=O)CNC(=O)CCNS(=O)(=O)c1ccc2c(c1)c(=O)n(C)c(=O)n2C
→ -5, 1, -5, 17, -3, 0.0
CCCCNC(=O)CCc1c(C)nc2nc(-c3cc(OC)cc(OC)c3)nn2c1C
→ 0, -2, 1, -15, 0, 2.5
O=C(N/N=C/c1c[nH]c2ccccc12)c1cccc([N+](=O)[O-])c1
→ -16, -29, -1, 5, -30, 0.3
COc1ccc(NC(=O)C2=C(C)NC(=O)NC2c2cccc(OC)c2OC)c(OC)c1 (stereo unspecified)
→ -3, 14, 22, -7, 4, 0.0
C=CCN(CC=C)C(=O)Nc1cc(OC)ccc1OC
→ 5, 0, -20, ?, -1, 1.2
CC(C)Oc1cc(C(=O)N2CCC(N3CCCCC3)CC2)ccc1Nc1nnc(Cl)c(Nc2ccccc2S(C)(=O)=O)n1
→ -2, -12, ., 0, -1, 0.0
CCCc1cc(=O)[nH]c(SCC(=O)c2cc(C)n(C)c2C)n1
→ -4, -5, 4, -7, -1, -0.8
COc1cc(C(=O)NCc2ccncc2)cc(Br)c1OCc1ccccc1
→ 1, -14, -12, 3, 2, -0.4
Cc1ccc(C)c(C(=O)n2cnnc2N)c1
→ 2, -1, 6, 17, 0, -0.4
O=C1c2ccccc2S(=O)(=O)c2cc(N3CCC4(CC3)OCCO4)ccc21
→ 12, -8, ., -19, 14, 3.4

The last two records of the section above are carried over, then new ones follow:
Fields – Six1-Eya2 inh, D2 potentiator, TRPV1 PAM, TRPML1 inh, CtBP-E1A blk, TRPML1 agonist
Cc1ccc(C)c(C(=O)n2cnnc2N)c1
→ 2, -1, 6, 17, 0, -0.4
O=C1c2ccccc2S(=O)(=O)c2cc(N3CCC4(CC3)OCCO4)ccc21
→ 12, -8, ., -19, 14, 3.4
COc1ccc(-c2ccc(CCC(=O)O)n2-c2ccccc2O)cc1
→ 4, 2, -12, ?, ., 1.0&0.0
O=C(OCc1ccccc1)N1CCOCCOCCN(C(=O)OCc2ccccc2)CCOCCOCC1
→ -1, -9, 2, 2, 0, 2.3
Cc1cccc(CC(=O)Nc2cc(=O)n(C)c(=O)n2C)c1
→ -1, -3, 2, -14, -1, -0.3
CN(CCCNC(=O)c1cn(C)c2ccc(S(=O)(=O)N(C)C)cc2c1=O)c1ccccc1
→ 0, 0, -9, -1, 2, 0.2
Cn1c(=O)c2[nH]cnc2n(-c2ccccc2)c1=O
→ -8, -8, 15, -15, -9, -0.3
COc1ccc(CCn2c(C)c(C(C)=O)c(C(C)=O)c2C)cc1OC
→ 9, -4, 13, 6, -8, -0.6
Cc1nc(SCC(=O)Nc2cc(C(N)=O)cc(C(N)=O)c2)c2c(C)c(C)sc2n1
→ 24, -8, 10, -1, 288, 0.4
CCCCNC(=O)CN1C(=O)NC(CCc2ccccc2)C1=O (stereo unspecified)
→ 8, 9, -6, 11, ., 2.3
CCOC(=O)c1ccc(NC(=O)c2c(Cl)cc(C)nc2C)cc1
→ 5, 1, -2, -7, -13, 0.4
CCOc1ccc(-c2c(=O)n(O)c3ccccc3[n+]2[O-])cc1
→ 0, -7, 20, 16, ., 1.1
CC1CCCC(C)N1CCCNC(=O)c1ccc2nc(N3CCOCC3)sc2c1 (stereo unspecified)
→ 9, -15, -6, 0, 1, 0.1
O=C(Nc1ccc2c(c1)OCCO2)C1CCN(C(=O)c2ccc(F)cc2)CC1
→ -10, 3, -6, -7, -12, 0.2
CSc1ccccc1NC(=O)COc1ccc(Cl)cc1
→ 18, -6, -19, 29, -28, 2.3
COc1ccccc1/C=C/C(=O)OCC(=O)Nc1ccc2c(c1)OCCO2
→ 3, -9, 10, 10, ., 1.0
COc1ccc(CC(=O)Nc2c3c(nn2-c2cccc(Cl)c2)CS(=O)(=O)C3)cc1
→ 0, -3, -3, -21, 1, 2.6
CC[C@@]1(C(=O)OC)N[C@H](CN(C)C(=O)c2ccccc2)[C@@H]2C(=O)N(Cc3ccccc3)C(=O)[C@@H]21
→ 7, -1, ., -4, 0, 3.3

Entries above containing two or more sulfur atoms:
Fields – Six1-Eya2 inh, D2 potentiator, TRPV1 PAM, TRPML1 inh, CtBP-E1A blk, TRPML1 agonist
CNC(=O)c1sc(-c2cccs2)nc1C
→ -2, -2, -3, 4, -1, 0.6
Cc1nc(SCC(=O)Nc2cc(C(N)=O)cc(C(N)=O)c2)c2c(C)c(C)sc2n1
→ 24, -8, 10, -1, 288, 0.4
